# Assay outcomes deposited in PubChem BioAssay by several laboratories.
# B2AR ag: human beta-2 adrenergic receptor agonism by FAP. 0.43% of 340,000 active. Am2.2-beta2AR cells, FAP receptor internalization, flow cytometry; reference of the scale not given here. response, % (test concentration not listed);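 active = response above a set limit, near 3 SD of response in nonfluorescent compounds, cut at about 42% in these data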;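 note: stock transfer was 100 nL into about 11 µL; a reference agonist was the positive control; negative values mostly stem from fluorescent compounds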
# Target sequence (P07550 whole entry, looked up): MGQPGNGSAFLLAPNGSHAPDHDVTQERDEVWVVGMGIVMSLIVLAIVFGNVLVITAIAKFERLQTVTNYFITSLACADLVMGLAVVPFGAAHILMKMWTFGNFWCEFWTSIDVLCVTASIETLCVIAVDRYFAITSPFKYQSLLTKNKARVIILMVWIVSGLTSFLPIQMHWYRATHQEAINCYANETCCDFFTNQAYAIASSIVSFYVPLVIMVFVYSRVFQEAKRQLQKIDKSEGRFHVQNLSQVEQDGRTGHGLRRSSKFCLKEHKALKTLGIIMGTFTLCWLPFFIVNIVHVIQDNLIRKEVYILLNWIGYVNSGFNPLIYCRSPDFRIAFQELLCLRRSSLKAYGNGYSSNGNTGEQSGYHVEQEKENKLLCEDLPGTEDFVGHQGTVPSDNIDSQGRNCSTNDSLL
# LANA-H2B inh: blocks KSHV LANA binding to histone H2A/H2B; cell-free LANA-H2A/H2B peptide, fluorescence polarization; inhibition, % (no concentration beside the values); 0.6% of 320,000 active; in the data active = inhibition mostly above about 10%, no sharp cut-off; inactive = mostly below about 6.7%;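 note: stock transfer was 7.5 nL into about 10 µL; 0% = median of vehicle wells and 100% = median of positive control wells; one replicate is shown; the record names a cut of 25% in any replicate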
# Ecoli rRNA inh: inhibits bacterial ribosomal RNA function over humanized ribosomes | 1.6% of 350,000 active | GFP signal change (wild-type ribosome), % (concentration not given with the values) | E. coli WT GFP vs humanized-ribosome RFP mutants, fluorescence, 24 h; stronger effect = lower value; DMSO median 0, no signal -100 | AID 720706;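 active = significant combined selectivity score with lowered wild-type GFP, culture density cut under 30%, mutant RFP and density less affected; inactive = any of these conditions unmet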; note: one replicate is shown; some compounds called inactive have numbers as strong as hits
# Bfl-1 A1 inh: inhibitors of the anti-apoptotic protein A1, read as caspase activation. MEF A1-2A-BIM cells, Caspase-Glo 3/7 luminescence, 3 h; percent of clofoctol response, vehicle zero. caspase activation, % (test concentration not listed). 0.066% of 330,000 active. AID 2462;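 active = over half of replicate activation scores above 10%, or exactly half above 10 with the replicate mean above 10; inconclusive = replicate mean below 10 yet half the replicates above 10; inactive = over half of replicates below 10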;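 note: wells of about 30 µL received 50 nL stock; many hits fall short of the cut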
# Beta apoptosis: blocks beta cell apoptosis; AID 435005; INS-1E cytokine-induced death, ATP luminescence, 48 h; percent of positive-control rescue, neutral wells zero; protection from apoptosis, % (test concentration not listed); 0.8% of 300,000 active;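 active = all replicates at 75% or more, or half of them and the mean; inconclusive = half reach 75% but not the mean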;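 note: 0% = cytokine-treated negative control wells and 100% = positive control rescue; higher means more ATP so stronger rescue from cytokine killing; wells of about 40 µL received 100 nL stock; the first replicate is given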
# Calb FLC: affects C. albicans growth with fluconazole; C. albicans CaCi-2 (fluconazole-resistant clinical isolate) + fluconazole, Alamar Blue growth, 48 h; growth inhibition, % (concentration not given with the values); 0.57% of 300,000 active; AID 1979;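 active = most replicates above 75%; inconclusive = exactly half above 75%; inactive = most below 75%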;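 note: all wells also contain fluconazole at 8 µg/ml as a sub-toxic cotreatment; 0% = median of DMSO wells and 100% = median of geldanamycin control wells; wells of about 8 µL received 7.5 nL stock; the first replicate is given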
# ALR H2O2 inh: blocks human ALR sulfhydryl oxidase activity | P55789 | purified ALR, DTT oxidation, H2O2 HRP-luminol luminescence | inhibition, % (no concentration beside the values) | 3.8% of 290,000 active | AID 485317;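 active = mean and each replicate at 75% or more; inconclusive = only one of the two met; inactive = neither met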;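 note: stock transfer was 7.5 nL into about 7.5 µL; 0% = neutral wells and 100% = wells with inactivated enzyme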
# Target sequence (P55789 whole entry, looked up): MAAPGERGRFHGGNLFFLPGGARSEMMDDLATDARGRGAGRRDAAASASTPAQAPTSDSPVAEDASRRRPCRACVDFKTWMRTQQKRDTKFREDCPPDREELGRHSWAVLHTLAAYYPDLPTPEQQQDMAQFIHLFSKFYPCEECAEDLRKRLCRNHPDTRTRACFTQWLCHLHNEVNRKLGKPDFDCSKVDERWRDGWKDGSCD
# T cruzi inh: T. cruzi replication inhibition | T. cruzi beta-gal in NIH3T3, luminescence, 90 h | inhibition, % (no concentration beside the values) | 1.4% of 300,000 active;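 active = mean inhibition across valid replicates above about 55%, limit read from the data; inconclusive = mean below that limit but half or more replicates reach it; inactive = mean below it, under half of replicates reach it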;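 note: signal also drops with host cell toxicity which is not excluded here; 0% = plate median of DMSO wells and 100% = zero luminescence signal; higher percent means less beta-gal luminescence so fewer parasites; stock transfer was 50 nL into about 50 µL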
# Ecoli rRNA inh OD600: also measured in Ecoli rRNA inh; calls as there; OD600 change, %; measured here: OD600 growth;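 optical density of the mix in the first replicate; 0 = DMSO median and -100 = no signal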
# Ecoli rRNA inh RFP: further read-out of Ecoli rRNA inh, marked with its call; RFP signal change, %; measured here: RFP humanized mutant strains;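 first replicate; 0 = DMSO median and -100 = no signal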
# Numbers without * were called inactive; u = inconclusive; x = no result given; + = active, no number; & = joins results of further samples.
SMILES,B2AR ag,LANA-H2B inh,Ecoli rRNA inh,Ecoli rRNA inh OD600,Ecoli rRNA inh RFP,Bfl-1 A1 inh,Beta apoptosis,Calb FLC,ALR H2O2 inh,T cruzi inh
COc1cc(/C=N/NC(=O)C[n+]2ccccc2)cc(OC)c1OC(C)=O,-2,5.5,5,6,-1.5,0.2,-5,2,x,-3
CCOC(=O)/C(C#N)=C/c1c(OCC)n(CC)c2ccccc12,10,3.9,-11,-11,1.7,0.8,-3,-46,5,19
Cc1ccc(NC(=S)N(Cc2ccc(Cl)cc2)Cc2ccc(C(=O)O)cc2)cc1Cl,3,-1.0,-42,-49,-5.7,1.1,-6,38,33,-25
CCOC(=O)C1CCN(C(=O)CCc2nnc3ccc(NCCCN4CCCC4=O)nn23)CC1,-1,-1.0,5,7,-0.8,-1.1,-3,-12,-6,-5
CCOC(=O)/C(C#N)=C/c1cn(CCC(=O)O)nc1-c1ccc(F)cc1,-9,-1.3,7,-6,4.1,-0.7,4,-3,17,-6
CNC(=O)NC(=O)C(C)OC(=O)CCCSc1nc2ccccc2s1 (configuration not stated),2,1.2,x,x,x,0.5,-4,24,-6,-10
CCn1c(=O)c2c(nc(SCC(=O)N3CCC(C)CC3)n2C)n(C)c1=O,4,21,6,1,0.3,0.1,0,-5,1,11
CCCn1nc(C(=O)NC2CCCCCC2)c2ccccc2c1=O,8,1.3,0,6,-2.7,-0.1,5,x,1,x
CNc1nnc(SCC(=O)N2c3ccccc3NC(=O)CC2C)s1 (configuration not stated),1,+,12,12,-0.7,0.3,0,x,-2,x
CC(C)(C)c1n[nH]c2c1CCCC2,2,13,20,11,13,0.2,-1,-11,1,2
Cc1cc(C)n2cc(CSc3ccc(Cl)cc3)nc2n1,-17,1.7,-25*,-17*,-0.4*,1.0,-1,3,-2,-7
c1ccc(CNCCN2CCNCC2)nc1,10,-3.7,x,x,x,-0.6,-15,-11,-8,-4
CCCCn1nnnc1SCC(=O)Nc1ccc2c(c1)OCCO2,0,-4.5,x,x,x,1.0,-6,5,1,9
CN(Cc1nc2ccccc2c(=O)[nH]1)Cc1cc(=O)oc2ccc3ccccc3c12,11,-2.0,x,x,x,-0.6,-7,-13,-11,-1
C=CCN1C(=O)CS/C1=N\S(=O)(=O)c1ccc(Cl)cc1,2,7.2,x,x,x,0.6,-3,5,-4,3
COCCSc1ccccc1C(=O)N1CCCC1,6,4.4,x,x,x,0.8,x,18,-7,-2
COc1cccc(C(=O)OCC(=O)Nc2nnc(-c3ccccc3)o2)c1,2,0.3,-15,-36,-5.1,0.9,2,-3,46,-8
COc1ccc(NC(=O)c2cc([N+](=O)[O-])nn2Cc2ccccc2)c(C)c1,-3,4.9,x,x,x,1.2,-2,-1,-2,45
COc1ccc(N(C(=O)c2ccc(Br)o2)C2C=CS(=O)(=O)C2)c(OC)c1 (configuration not stated),2,-3.3,7,5,5.2,0.7,-5,8,-6,-1
CC(C)(C)NC(=O)C(c1ccco1)N(Cc1ccc2c(c1)OCO2)C(=O)c1snc(C(N)=O)c1N (configuration not stated),0,-5.4,x,x,x,-1.1,2,-2,0,-2
COc1cc(CN(C)CC2CCCN(CCc3ccc(F)cc3)C2)c(Cl)cc1O (configuration not stated),6,-3.6,x,x,x,-0.6,-3,-3,5,47
CCn1cc(C(=O)N[C@@H](CCSC)C(=O)NCCN2CCOCC2)c(=O)c2cc3c(cc21)OCO3,4,3.7,5,14,-0.6,0.4,-7,6,3,-24
CCOC(=O)/C=C1\SCC(=O)N1Cc1ccc(Br)cc1,-11,-5.5,x,x,x,0.5,2,-5,-18,6
C[C@@H]1CN([C@@H](C)CO)C(=O)c2cccc(NC(=O)Nc3ccc4c(c3)OCO4)c2O[C@H]1CN(C)S(=O)(=O)c1cn(C)cn1,1,0.7,2&5,1&3,-3.1&-1.3,0.5,-6,x,-4,x
O=C1NC(=Nc2ccccc2)S/C1=C\c1cccnc1,-3,-0.6,6,0,-1.4,1.1,x,8,x,0
# Later entries
SMILES,B2AR ag,LANA-H2B inh,Ecoli rRNA inh,Ecoli rRNA inh OD600,Ecoli rRNA inh RFP,Bfl-1 A1 inh,Beta apoptosis,Calb FLC,ALR H2O2 inh,T cruzi inh
CCCCc1ccc(NC(=O)CSc2nc(=O)n3cc(C)ccc3n2)cc1,-4,0.5,-10,-9,0.3,1.4,7,-3,-5,-8
CCN1CCN(Cc2ccc(NC(=O)c3ccc(C)c(NC(=O)c4nccn4C)c3)cc2C(F)(F)F)CC1,9,4.0,-7,4,-1.3,1.0,-4,-5,-11,11
CCN(CC)CC(=O)Nc1sc2c(c1C(=O)c1ccccc1C)CCC2,11,-0.8,-31,44,6.7,-0.4,1,0,41,38
CC(=O)Nc1ccc(SC[C@H](c2ccccc2)N2CCN(CCc3ccccc3)CCC2=O)cc1,x,-2.9,-17,-21,2.0,-0.7,19,-4,98*,23
O=C(NCN1CCN(c2ccccc2F)CC1)c1cccnc1,3,-11,x,x,x,0.1,0,-4,-8,-5
O=C(Nc1ccccc1O)c1cc(S(=O)(=O)N2CCOCC2)ccc1Cl,-2,-0.9,x,x,x,0.7,x,25,44,-7
CN(C(=O)c1ccc2ccccc2c1)c1ccccn1,-2,0.5,5,4,-0.6,-1.4,-19,-7,-5,-13
COc1ccc(-n2c(O)c(/C=N/n3cnnc3)c3ccccc3c2=O)cc1,-7,-4.3,x,x,x,0.5,0,-6,28,-20
Cc1ccc(S(=O)(=O)NC(=O)NCc2ccccc2)cc1,1,1.7,x,x,x,0.3,-6,0,-4,-9
Cc1ccc(CN2C(=O)CCC2C(=O)NC2CC2)cc1 (configuration not stated),2,5.6,x,x,x,-0.1,-1,-7,19,-12
Cc1cccc(CN2CCN(Cc3ccco3)CC2)c1,-6,2.5,7,7,-0.4,1.4,0,1,-35,47
CC1CCN(C(=O)COC(=O)CSc2ccc(C(N)=O)cc2[N+](=O)[O-])CC1,5,-1.4,-3,5,-0.2,-0.1,x,-2,-4,-6
O=C(NC1=NCCS1)c1cc(-c2ccccc2)nn1-c1ccccc1,-5,-1.1,x,x,x,x,7,-6,31,14
CC1(C)CC(=O)C2=C(C1)Nc1cc3c(cc1C2c1ccc(F)cc1)OCO3 (configuration not stated),-2,-1.0,x,x,x,1.1,-2,-1,98*,30
Cc1ccc2c(C)c(C(=O)NCCc3ccco3)oc2c1C,-5,2.6,-26*,-18*,-0.3*,-0.1,-6,13,3,-9
NS(=O)(=O)c1ccc(NC(=S)N2CCCC2)cc1,12,-1.8,3,14,-1.9,0.0,-3,-4,-1,11
CCN(C(=O)c1ccccc1Cl)c1ccccc1,7,-3.3,x,x,x,-0.2,-4,-1,1,8
O=C(NC1CCN(C(=S)NCc2ccco2)CC1)C1CCCCC1,-4,-4.5,x,x,x,0.2,5,-9,-2,9
O=C(CN(C(=O)Cn1nnc(-c2ccc(F)cc2)n1)c1ccc(F)cc1)NC1CCCC1,-4,3.4,2,15,0.5,-0.2,3,4,-1,3
Cc1ccc(C)c(S(=O)(=O)N2CCCOC2CNC(=O)C(=O)NCc2cccnc2)c1 (configuration not stated),-2,0.4,14,6,-0.6,0.5,-1,5,-17,5
O=C(COC(=O)/C=C/c1ccco1)NCc1ccccc1,-2,-3.9,9,3,2.1,0.2,-1,-5,-2,-20
Cc1ccc(CNC(=O)CCC2CCCN(C(=O)CCC(F)(F)F)C2)o1 (configuration not stated),-7,5.5,19,12,0.7,0.2,-14,4,3,-14
CN(C)C1=NCCN1CCc1cccc(F)c1,-10,-2.6,0,5,-9.7,1.1,-6,-5,1,-13
CCN(Cc1ccccc1)C(=O)c1ccc(CNS(=O)(=O)c2ccc(C)cc2)cc1,1,x,x,x,x,-0.3,9,u,x,14
CCc1nnc(NC(=O)c2n[nH]c(=O)c3ccccc23)s1,-14,2.3,14,9,-1.4,-0.6,1,38,x,5
# Following part.
SMILES,B2AR ag,LANA-H2B inh,Ecoli rRNA inh,Ecoli rRNA inh OD600,Ecoli rRNA inh RFP,Bfl-1 A1 inh,Beta apoptosis,Calb FLC,ALR H2O2 inh,T cruzi inh
O=C(Nc1ccccn1)c1ccc2c(c1)OCCO2,3,2.5,1,12,1.0,0.4,-1,3,0,-13
COC(=O)c1cc(S(=O)(=O)NC2CCN(Cc3ccccc3)CC2)cn1C,-2,2.3,x,x,x,0.2,-3,7,-1,10
N#Cc1c(N)nc(SC2CCCCC2=O)c(C#N)c1-c1ccco1 (configuration not stated),2,-2.9,x,x,x,-0.7,3,-1,0,-2
Oc1ccc(Br)cc1-c1n[nH]c(=S)n1Cc1ccccc1,0,-1.2,-52,-78,-29,-1.0,-2,18,x,-3
CC(=O)C1=C(O)C(=O)N(c2ccc(Br)cc2)C1c1ccc([N+](=O)[O-])cc1 (configuration not stated),-5,6.0,-11,-21,-4.6,-0.2,1,-4,97*,5
O=C(CSc1ncccn1)NC(=O)c1ccccc1,2,-0.7,23,19,1.4,0.2,-14,0,0,-10
CCOC(=O)Cc1csc(NC(=O)COc2ccc(N(C)S(=O)(=O)c3ccc(C)cc3)cc2)n1,2,-0.4,x,x,x,0.2,-1,24,-8,-5
FC(F)(F)c1ccc(CN2CCCCCC2)cc1,0,5.8,24,12,-1.4,0.5,-9,0,-4,14
O=C(Nc1nnc(-c2ccc(F)cc2)o1)c1cccc([N+](=O)[O-])c1,2,-3.6,4,12,0.4,-2.2,14,91*,2,51
Cc1cccc(C(=O)N/N=C/c2ccncc2)c1,3,4.5,x,x,x,-0.5,-5,0,5,17
Cc1ccc(C(=O)OCc2cc3ccccc3[nH]c2=O)cc1,-7,0.2,10,10,-1.5,0.1,1,10,-1,u
Cc1ccc(C(=O)Nc2ccc(Nc3ccccc3)cc2)cc1C,11,-15,-8,8,-3.0,-0.7,x,0,16,22
CCOc1ccc(Cn2cc(F)c(=O)[nH]c2=O)cc1,2,-1.8,-6,-2,4.9,-0.7,-10,-4,-3,1
Cc1ccc(/C(N)=N/OC(=O)CN(C)S(=O)(=O)c2ccc(C)cc2)cc1,-1,-1.8,-31,-45,-6.9,1.4,-4,-7,0,-1
CCOC(=O)c1c(C)[nH]c(C(=O)COC(=O)C2CC(=O)N(Cc3ccccc3)C2)c1C (configuration not stated),0,3.0,x,x,x,0.7,-5,-4,-9,-20
C/C(N=Nc1nc2ccccc2s1)=N\Nc1ccccc1O,4,-4.1,9,2,-7.7,0.4,70,-6,x,1
COc1ccccc1-c1nnc(SCc2nc3ccccc3s2)n1C,31,7.4,-15,-10,5.5,-0.2,-1,-3,46,8
O=C(CC1C(=O)NCCN1Cc1ccoc1)NCc1cccc(OC(F)(F)F)c1 (configuration not stated),-1,0.5,4,6,-2.2,-0.1,-5,-6,10,-2
CCN(CC)c1ccc(/C=N/NC(=O)c2c(-c3ccccc3)noc2C)cc1,-4,-5.4,-4,-18,4.1,-0.4,0,0,48,10
O=C(NNc1ncccc1-n1cccc1)c1ccc(Cl)cc1,-1,3.8,-3,5,8.7,0.4,3,-5,x,-28
O=C1Nc2ccccc2C1=Nc1ccc(S(=O)(=O)Nc2nccs2)cc1,6,2.6,1,1,-0.2,0.8,-6,-23,50,-10

# A portion of the library. The share of hits here may be higher or lower than overall.
